SARS PLpro yeast – inhibitors of SARS-CoV papain-like protease in yeast | S. cerevisiae expressing SARS-CoV PLpro, growth rescue; control for the full effect not named in the record | Potency, µM (titrated, usually from 32.9 µM), for the others: at the highest dose activity, positive = growth rescue | 330,000 compounds, 0.19% hits | AID 485353; active means well fitted rising curve with a large enough effect; inconclusive means small, poorly fitted or top-dose-only effect; inactive means no such curve, though single readings can be large or run the other way; further: 0% is about no effect; nearly all actives have a fitted effect of over 55% in size; growth read by luminescence after 48 h
StopGo reporter – lowers the luciferase signal of an FMDV 2A StopGo reporter; 410,000 compounds, 1.2% hits; Potency, µM (series often up to 57.9 µM), without a hit: top-dose signal change, negative = less light; human cells with a luciferase reporter of 2A StopGo recoding; control for the full effect not named in the record; AID 1159524; active = well fitted falling curve with a large enough effect; inconclusive = small, poorly fitted or top-dose-only effect; inactive = no such curve, though single readings can be large or run the other way; tested in HEK293T cells; further: on the % scale 0 is the no-effect control and ±100 the full control effect; nearly all actives have a fitted effect of over 45% in size; luciferase light after 4 h
Cruzain Triton – cruzain (T. cruzi) inhibition with detergent; P25779; purified cruzain, Z-FR-AMC fluorescence, 0.01% Triton; Potency, µM, for inactives: max response, negative = inhibition, usual class: inhibitors; 200,000 compounds, 0.43% hits;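 further: plate controls were neutral wells for no effect and buffer without enzyme for full effect; nearly all actives have a fitted effect of over 40% in size; top concentration of the series not given in the record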
Target sequence (P25779 123-467 limits assumed): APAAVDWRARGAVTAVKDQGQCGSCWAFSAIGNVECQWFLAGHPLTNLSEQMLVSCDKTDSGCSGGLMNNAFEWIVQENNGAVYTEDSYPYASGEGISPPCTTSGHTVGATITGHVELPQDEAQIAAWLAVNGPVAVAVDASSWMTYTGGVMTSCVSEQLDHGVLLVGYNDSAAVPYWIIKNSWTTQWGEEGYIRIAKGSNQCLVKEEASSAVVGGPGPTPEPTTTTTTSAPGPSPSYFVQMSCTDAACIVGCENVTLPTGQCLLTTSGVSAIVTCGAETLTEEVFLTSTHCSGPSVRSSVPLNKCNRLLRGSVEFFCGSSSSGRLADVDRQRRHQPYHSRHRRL
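Cruzain (1.5 nM) preincubated 15 min at RT with compound in 100 mM sodium acetate pH 5.5, 5 mM DTT, 0.01% Triton X-100. Reaction started with 2 uM Z-FR-AMC; AMC fluorescence (ex 360/em 450 nm) change over 60 s gave rate.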
RE007 growth inh – less growth of the S. pombe RE007 Vpr strain; 360,000 compounds, 0.21% hits; S. pombe RE007 Vpr strain, BacTiter-Glo ATP luminescence, 24 h; control for the full effect not named in the record; AID 651644; Potency, µM (highest dose often 92.2 µM), without a hit: at the highest dose activity change, negative = less growth; active = well fitted falling curve with a large enough effect; inconclusive = small, poorly fitted or top-dose-only effect; inactive = no such curve, though single readings can be large or run the other way;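 further: on the % scale 0 is the no-effect control and ±100 the full control effect; nearly all actives have a fitted effect of over 50% in size; the assay follows cell death caused by Vpr and the record does not say whether a fall means rescue or toxicity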
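Fission yeast strain RE007, carrying one chromosomally integrated HIV-1 vpr copy, was seeded at OD 0.01 in PMG+AL medium with 23 nL pinned compound. After 24 h at 30 °C and 99% humidity, viability was read by BacTiter-Glo luminescence.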
Cruzain inh noDet – blocks cruzain activity in detergent-free assay; purified cruzain, Z-FR-AMC fluorescence, no detergent; 200,000 compounds, 2.3% hits; Potency, µM, for the others: max response, negative = inhibition, actives largely listed as inhibitors;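 further: plate controls were enzyme without inhibitor for no effect and buffer without enzyme for full effect; nearly all actives have a fitted effect of over 40% in size; top concentration of the series not given in the record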
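Detergent-free condition (0.00005% Triton X-100) in acetate buffer pH 5.5 with DTT. 1.5 nM enzyme and compound were pre-mixed 15 min, then 2 uM Z-FR-AMC substrate added; reaction progress from fluorescence change between first and third reads (60 s).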
NS1 function inh – blocks influenza NS1 protein function. S. cerevisiae slowed by influenza A NS1, growth recovery by OD600. Potency, µM (series often up to 46.1 µM), for the others: top-dose activity, positive = more growth. 270,000 compounds, 0.4% hits. AID 2326; active means well fitted rising curve with a large enough effect; inconclusive means small, poorly fitted or top-dose-only effect; inactive means no such curve, though single readings can be large or run the other way; further: nearly all actives have a fitted effect of over 50% in size
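Growth recovery, yeast-based: influenza A NS1 expressed in S. cerevisiae causes slow growth, and suppressors are detected by OD600. The parent strain without NS1 is used as positive control.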
Marburg entry inh – Marburg virus entry inhibition. Marburg virus pseudotyped entry inhibition, cell reporter; control for the full effect not named in the record; about a third of the inactives were read at about 46 µM. Potency, µM (top dose mostly 37.8 µM), without a hit: top-dose activity change, negative = inhibition, most hits filed as inhibitors. 300,000 compounds, 1.8% hits. AID 540276; active = well fitted inhibition curve with a large enough effect; inconclusive = small, poorly fitted or top-dose-only effect, or effect the other way; inactive = flat fitted curve, though single readings scatter; tested in HEK293 cells; about a fifth of its hits are not listed in these tables; further: on the % scale 0 is the no-effect control and ±100 the full control effect; luciferase read-out
Lassa entry inh – Lassa virus entry inhibition. Lassa virus pseudotype entry inhibition, cell reporter; control for the full effect not named in the record. Potency, µM (highest dose often 37.9 µM), without a hit: top-dose activity change, negative = inhibition, usual class: inhibitors. 300,000 compounds, 1.2% hits. AID 540256; active means well fitted inhibition curve with a large enough effect; inconclusive means small, poorly fitted or top-dose-only effect, or effect the other way; inactive means flat fitted curve, though single readings scatter; tested in HEK293 cells; further: on the % scale 0 is the no-effect control and ±100 the full control effect; nearly all actives have a fitted effect of over 50% in size; luciferase read-out
The depositor's hits bear a star; ? = inconclusive; · = no result given; & = joins results of further samples; [ ] = remark or other dose. Unless noted, the call rests on the fitted dose curve; in most records, active means well fitted curve in the direction sought with a large enough effect; inconclusive means small, poorly fitted or top-dose-only effect, or another doubt; inactive means no such curve, though single readings can be large; an effect the other way counts as inactive or inconclusive. Potency means the concentration at half of the fitted maximal effect.

SMILES	SARS PLpro yeast	StopGo reporter	Cruzain Triton	RE007 growth inh	Cruzain inh noDet	NS1 function inh	Marburg entry inh	Lassa entry inh
COc1ccc(-c2cc(C(=O)Oc3ccccc3)c3cc(C)ccc3n2)cc1	·	18%	-1.6%	·	5%	·	·	2%[46.1 µM]
CCOC(=O)c1c(NC(=O)CSc2nnc(C)o2)sc(C)c1C	1%	-8%	·	-1%	·	-37%	·	·
O=C(NCCc1ccco1)C(=O)NCCC1CCCCN1S(=O)(=O)c1ccccc1 (configuration not stated)	0%	-21%	·	8%	·	·	?	?
CCOC(=O)CN1C(=O)S/C(=C\c2ccc(-c3ccc(C(=O)O)c(Cl)c3)o2)C1=O	0%	-6%	·	11%	·	2%	·	·
CCOCC(=O)Nc1cccc(OC)c1	-26%	2%	-1.6%	7%	-21%	4%	5%	6%
Cc1ccc(S(=O)(=O)NN=C2CCN(Cc3ccccc3)CC2)cc1	0%	-9%	4.3%	-9%	5%	8%	10%	-7%
CCO[C@H]1OC(C(=O)N2CCN(C)CC2)=C[C@@H](c2csc3ccccc23)[C@@H]1CCCO	1%	-12%	·	-4%	·	3%	·	·
COc1ccccc1/C=N/Nc1cc(N(C)C)nc(N(C)C)n1	-6%	-21%	·	-5%	·	·	-16%[46.1 µM]	-17%
O=[N+]([O-])c1cccc(C2CC(c3ccccc3)=NN2c2ccccc2)c1 (configuration not stated)	?	-22%	·	-16%	·	-19%	-12%	4%
Cc1ccc(S(=O)(=O)N2CCCN(c3nc4cc(C)ccc4cc3C#N)CC2)cc1	-33%	·	-5.5%	-10%	?	18%	?	-19%

Molecules shown so far with a thiophene ring, fused or not, in the order listed:
SMILES	SARS PLpro yeast	StopGo reporter	Cruzain Triton	RE007 growth inh	Cruzain inh noDet	NS1 function inh	Marburg entry inh	Lassa entry inh
CCOC(=O)c1c(NC(=O)CSc2nnc(C)o2)sc(C)c1C	1%	-8%	·	-1%	·	-37%	·	·
CCO[C@H]1OC(C(=O)N2CCN(C)CC2)=C[C@@H](c2csc3ccccc23)[C@@H]1CCCO	1%	-12%	·	-4%	·	3%	·	·

(list continues)
SMILES	SARS PLpro yeast	StopGo reporter	Cruzain Triton	RE007 growth inh	Cruzain inh noDet	NS1 function inh	Marburg entry inh	Lassa entry inh
c1ccc(-n2cnc3cc(NCc4cccs4)ccc32)cc1	5%	?	-6.1%	-12%	-21%	-59%	?	?
O=C(NC1CCCc2ccccc21)c1ccc(Br)cc1 (configuration not stated)	2%	12%	-4.6%	-11%	-11%	11%	?	-19%
NC(=O)CNC1CC(=O)N(CCc2ccccc2)C1=O (configuration not stated)	14%	-24%	7.4%	1%	8%	2%	-3%	0%
CNS(=O)(=O)c1ccc(NC(=O)c2ccc(Cl)cc2Cl)cc1	-6%	5%	-4.2%	12%	8%	9%	-2%	-4%
CC(=O)c1ccc(OCCCC(=O)Nc2cccc(S(=O)(=O)N(C)C)c2)cc1	-20%	-23%	-1.4%	4%	-11%	-6%	?	-2%
Nc1c(C(=O)Nc2ccccc2)sc2nc3c(cc12)CN(Cc1ccccc1)CC3	·	-7%	-9.5%	·	?	·	8%[46.1 µM]	-1%[46.1 µM]
CCOC(=O)c1c(Nc2ccc(O)cc2)nnc(-c2ccccc2)c1-c1ccccc1	·	0%	-1.4%	·	-5%	·	?	?
CCOC(=O)N1CCN(C(=O)CC(=O)Nc2ccc3nc4n(c(=O)c3c2)CCCCC4)CC1	-3%	0%	1.4%	27%	9%	-3%	0%	-19%
CCOC(=O)C1=C(C)Nc2ccccc2N=C1NC(=O)C(CC)c1ccccc1 (configuration not stated)	3%	3%	-2.2%	7%	-8%	-8%	?	9%
COc1cccc(-c2cc(C(=O)Nc3c(C)n(C)n(-c4ccccc4)c3=O)no2)c1	11%	-18%	4.2%	-2%	-8%	1%	?	2%
Cn1c(SCC(=O)Nc2ccc3c(c2)OCCO3)nnc1-c1cccnc1	-4%	-8%	·	-2%	·	·	?	4%[46.1 µM]
CC(C)(C)OC(=O)N1CCC(c2c(C(=O)O)cnn2-c2ccccc2Cl)CC1	1%	15%	1.8%	6%	12%	11%	10%	2%
O=C(CCC(=O)N(CC(=O)NC1CCCC1)Cc1ccccc1)Nc1nccs1	1%	15%	·	-1%	·	9%	?	19%[46.1 µM]
Cc1ccoc1C(=O)Nc1cccc2ccccc12	-12%	54%[activator]	·	?	·	-62%	·	·
O=C(CCN1C(=O)c2ccccc2C1=O)OCn1nnc2ccccc2c1=O	5%	-1%	0.1%	-6%	0%	-25%	11%	-6%
CCOc1ccc(CNC(=S)NCc2ccc(OCC)cc2)cc1	13µM*	49%[activator]	-4.9%	1%	2%	10%	-17%[46.1 µM]	-22%
Cc1nc2sc(C(N)=O)c(N)c2c(-c2ccc(Br)cc2)c1C(=O)Nc1ccc(Cl)cc1	·	?	-26%	·	?	·	?	?
CCCCN(C(=O)CCC(=O)Nc1cc(C)on1)C(C(=O)NC1CCCC1)c1ccc(F)cc1 (configuration not stated)	-5%	56%[activator]	·	0%	·	12%	?	?
N#C/C(=N\Nc1ccc(Cl)cc1)C(=O)c1ccsc1	-5%	1%	·	19%	·	-55%	?	?
CC1=C(C(=O)Nc2ccccc2)C(c2cccs2)n2nnnc2N1 (configuration not stated)	4%	13%	-4.1%	10%	-3%	1%	7%	3%
Cn1cc2ccc([N+](=O)[O-])cc2n1	2%	9%	·	-14%	·	5%	·	·
Cc1ccc(N/C(SCc2ccccc2C)=C(/C#N)C(=O)NCc2ccco2)cc1C	1%	-27%	-6.4%	-4%	-28%	10%	?	?
O=C(CN(C(=O)C1CSC(=O)C1)c1ccc(F)cc1)NCc1ccc2c(c1)OCO2 (configuration not stated)	-1%	-8%	·	-20%	·	5%	-17%[46.1 µM]	-1%
CCc1cc(C(=O)c2ccc(OC)cc2)c(N)s1	-1%	10%	·	-6%	·	-6%	?	·
CC1CN=C(NC(C)c2ccccc2)S1 (configuration not stated)	1%	12%	·	2%	·	1%	·	·
CN(C)CCSCc1nnc2n1-c1ccc(Cl)cc1C(c1ccccc1Cl)=NC2	·	-9%	·	-12%	·	·	0%[14.2 µM]	?
O=c1c(C(c2ccccc2)c2c(O)sc3ccccc3c2=O)c(O)sc2ccccc12	-6%	·	25µM*	9%	?	-19%	-2%&-2%	4%
Cc1ccc(N(CC(=O)Nc2c(C)n(C)n(-c3ccccc3)c2=O)S(C)(=O)=O)cc1C	-2%	3%	7.9%	7%	-2%	3%	10%[46.1 µM]	-14%
COc1ccc(C2NC(c3ccc(OC)cc3)C(c3ccccc3)C(=O)C2c2ccccc2)cc1 (configuration not stated)	-13%	-18%	-2.7%	-3%	-30%	-4%	?	?
CCc1nc(NC(=O)c2sc(C)nc2C)sc1C(=O)OC	-2%	7%	·	-18%	·	-1%	·	·
O=C1CC(c2ccc(Cl)cc2)CC(=O)C1CS(=O)(=O)c1ccccc1 (configuration not stated)	0%	?	·	17%	·	·	-1%[46.1 µM]	-2%
NS(=O)(=O)c1ccc(CNC(=O)Cc2ccccc2F)cc1	3%	2%	·	-22%	·	·	-7%[46.1 µM]	2%[46.1 µM]
COc1ccc(-c2nnc(NC(=O)c3cc(C)on3)s2)cc1	-17%	46%[activator]	-1.7%	-2%	?	-38%	1%	5%
CC(C#N)Sc1nnc(-c2ccccc2F)n1C1CC1 (configuration not stated)	-1%	1%	·	4%	·	3%	-3%[46.1 µM]	10%
CC1CN(C(=S)Nc2ccccc2F)CC(C)O1 (configuration not stated)	1%	-15%	·	-22%	·	8%	·	·
CCOC(=O)c1ccc(NC(=O)CCc2nnc3ccc(N4CCCC4)nn23)cc1	12%	-12%	·	-1%	·	?	·	·
CSc1nnc(-c2ccccc2SC)o1	2%	19%	·	-7%	·	·	?	3%
COc1ccc(/C=N/NS(=O)(=O)c2ccc(C)cc2)cc1	-3%	74%[activator]	·	-5%	·	-1%	17%	-1%
O=S(=O)(c1ccc(Br)s1)N1CCc2ccccc2C1	-1%	·	-6.3%	-9%	-5%	-12%	-27%	18%
COc1ccc(NC(=O)c2ccco2)cc1NC(=O)c1ccc(C)c(C)c1	·	5%	-0.9%	·	-1%	·	-16%[46.1 µM]	?
Cc1ccc[n+](C(C)C(=O)Nc2ccc(C)c([N+](=O)[O-])c2)c1 (configuration not stated)	1%	18%	3.8%	-28%	-7%	-2%	-3%	?
Cc1ccccc1OCCC(=O)N(CC(=O)Nc1ccccc1C(F)(F)F)Cc1ccco1	1%	-24%	·	-20%	·	·	?	-2%
CCCN(CC(=O)Nc1ccc(F)c(F)c1F)CC(=O)Nc1c(C)n(C)n(-c2ccccc2)c1=O	-2%	?	·	6%	·	·	21%	4%
O=[N+]([O-])c1ccc(COc2ncnc3ccccc23)cc1	3%	-4%	·	40%	·	·	20%[46.1 µM]	22%
CCCCOCCCNC(=O)c1cccs1	0%	·	4.1%	-12%	-10%	-6%	11%	12%
Cc1ccc2c(c1)N(C(=O)c1ccco1)C(C)(C)c1ssc(=S)c1-2	6%	?	-2.1%	-3%	32µM*	18%	-20%	2%
CCCN(C(=O)NCc1noc2ccc(C)cc12)c1ccc(Cl)c(Cl)c1	·	-20%	-8.1%	·	-11%	·	·	4%[46.1 µM]
COc1ccc(Cl)cc1NC(=O)CN(C)CC(=O)Nc1ccc(Br)cc1	-14%	6%	·	6%	·	·	-18%	-3%
COP(=O)(NC(=O)C(Cl)(Cl)Cl)OC	0%	-19%	·	4%	·	11%	·	·
Nc1c(-c2nc(-c3ccc(Cl)cc3)no2)nnn1-c1ccc(C(F)(F)F)c(Cl)c1	·	-15%	0.8%	·	26%	·	·	4%[46.1 µM]
O=C(O)CSCC(=O)Nc1ccc(S(=O)(=O)N2CCCCC2)cc1	2%	?	6.4%	-1%	0%	4%	-16%&-16%[46.1 µM]	3%
Cn1c(SCC(=O)Nc2nc3ccccc3s2)ncc(C(=O)Nc2ccc(F)cc2)c1=O	·	16%	-1.7%	·	0%	·	·	18%[46.1 µM]
O=c1ccc2c(OCCCCc3ccccc3)c3ccoc3cc2o1	·	·	-7.6%	·	?	-15%	?	11%

Bioassay records from PubChem BioAssay.
